rRNA inh HTS: inhibitors of bacterial rRNA selective over humanized ribosomes; E. coli WT GFP vs humanized-ribosome RFP mutants, fluorescence, 24 h; stronger effect = lower value; DMSO median 0, no signal -100; GFP signal change (wild-type ribosome), % (test concentration not listed); 1.6% of 350,000 active; AID 720706;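 active = significant combined selectivity score with lowered wild-type GFP, culture density cut under 30%, mutant RFP and density less affected; inactive = any of these conditions unmet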; note: one replicate is shown; some compounds called inactive have numbers as strong as hits
rRNA inh HTS OD600: also measured in rRNA inh HTS; calls as there; OD600 change, %; measured here: OD600 growth;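 optical density of the mix in the first replicate; 0 = DMSO median and -100 = no signal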
rRNA inh HTS RFP: recorded beside rRNA inh HTS, whose call it bears; RFP signal change, %; measured here: RFP humanized mutant strains;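 first replicate; 0 = DMSO median and -100 = no signal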
* = called active by the depositor; & = joins results of further samples.

rRNA inh HTS RFP	rRNA inh HTS OD600	rRNA inh HTS	Structure
0.9	5	1	C[C@H](CO)N1C[C@H](C)[C@@H](CN(C)C(=O)Cc2ccncc2)Oc2cc(C#CC3(O)CCCC3)ccc2S1(=O)=O
0.4	-7	0	C[C@@H](NC(=O)C[C@H]1C[C@H]2c3cc(NC(=O)C4CCC4)ccc3O[C@H]2[C@H](CO)O1)c1ccccc1
-2.3	-19	-10	CC(C)[C@@H]1C(=O)N[C@@H](c2cccc(Cl)c2)CC=CC[C@@H](C)Oc2ccccc2C(=O)N1C (mixture of isomers)
1.5	9	3	O=C(O)C[C@@H]1C[C@H]2c3cc(NC(=O)Cc4ccncc4)ccc3O[C@H]2[C@@H](CO)O1
-1.6	9	-1	C/C=C/c1ccc([C@H]2[C@@H](CO)N(Cc3ccccn3)[C@H]2CNC(=O)CC)cc1
1.2	2	-1	O=C(Cc1ccccn1)N[C@@H]1CC[C@@H](CCn2cc(-c3ccc(F)cc3)nn2)O[C@@H]1CO
0.1	1	3	CNC[C@H]1Oc2ccc(NS(C)(=O)=O)cc2CC(=O)N(C)C[C@@H]1C
28	-39	-27	COc1cccc(-c2ccc3c(c2)[C@@H]2[C@@H](CCN2C(=O)NC2CCCCC2)[C@@H](CO)N3C)c1
-2.5	3	0	C[C@@H]1CCCCO[C@@H](CN(C)C)[C@H](C)CN([C@H](C)CO)C(=O)c2cc(NC(=O)c3ccccc3)ccc2O1
-1.1	6	2	CN(C)CC(=O)N[C@H]1CC[C@H](CC(=O)O)O[C@@H]1CO
-1.4	3	1	C[C@H](CO)N1C[C@H](C)[C@@H](CN(C)C(=O)Nc2ccccc2C(F)(F)F)OCc2ccccc2-c2ccccc2C1=O
2.5	-11	-4	CC=Cc1ccc2n(c1=O)C[C@@H]1[C@@H](CO)[C@H](C(=O)NC3CCC3)N(CCC(F)(F)F)[C@H]21 (mixture of isomers)
0.0	-2	0	C[C@H](O)C#Cc1cnc2c(c1)C(=O)N([C@H](C)CO)C[C@H](C)[C@@H](CN(C)C(=O)Cc1ccncc1)O2
0.8	11	1	CCC(=O)N1CC2(CN(C(C)=O)C2)c2c([nH]c3cc(OC)ccc23)[C@H]1CO
4.5	-25	3	O=C1CN(S(=O)(=O)Cc2ccccc2)C[C@@H]2[C@@H](c3ccc(C#Cc4ccc(F)cc4)cc3)[C@@H](CO)N12
0.6	8	2	CCCNC(=O)Nc1ccc2c(c1)C(=O)N(C)C[C@@H](OC)[C@@H](C)CN(CCC)[C@@H](C)CO2
1.6	-71	-44	O=C(c1ccc2c(c1)OCO2)N1CC(=O)N2[C@@H](CO)[C@@H](c3ccc(C#CC4CCCC4)cc3)[C@@H]2C1
-2.1	9	3	CC(C)NC(=O)N(C)C[C@H]1Oc2c(NC(=O)Cn3cnnn3)cccc2C(=O)N([C@H](C)CO)C[C@@H]1C
-0.4	0	0	COc1ccc(S(=O)(=O)N(C)C[C@@H]2OCc3cn(nn3)CCCC(=O)N([C@H](C)CO)C[C@@H]2C)cc1
22	-37	0	O=C(c1cnccn1)N1CC(=O)N2[C@H](C1)[C@H](c1ccc(C#CCC3CCCC3)cc1)[C@@H]2CO
-4.1	8	4	COc1ccc2c3c(n(C)c2c1)[C@@H](CO)N(C(=O)CN(C)C)CC31CN(C(=O)C2CCC2)C1
0.8	-5	0	Cc1ccc(S(=O)(=O)Nc2ccc3c(c2)C(=O)N([C@@H](C)CO)C[C@@H](C)[C@H](CN(C)C(=O)CCC(F)(F)F)OCCCC[C@@H](C)O3)cc1
-2.1	-10	-1	O=C(NCCN1CCCCC1)[C@@H]1N[C@@H]2c3ccc(-c4cccnc4)c(=O)n3C[C@@H]2[C@H]1CO
-1.1	-5	-1	C[C@@H](NC(=O)C[C@@H]1C[C@H]2c3cc(NC(=O)CC4CC4)ccc3O[C@H]2[C@H](CO)O1)c1ccccc1
1.6	-2	-3	COc1cccc(C#Cc2ccc([C@H]3[C@H]4CN(C(=O)c5ccncc5)CC(=O)N4[C@H]3CO)cc2)c1

Quoted from the listing.
COc1ccc(S(=O)(=O)N(C)C[C@@H]2OCc3cn(nn3)CCCC(=O)N([C@H](C)CO)C[C@@H]2C)cc1 – rRNA inh HTS OD600 = 0
C[C@@H]1CCCCO[C@@H](CN(C)C)[C@H](C)CN([C@H](C)CO)C(=O)c2cc(NC(=O)c3ccccc3)ccc2O1 – rRNA inh HTS = 0

The listing picks up; the seven compounds before the break are reprinted first.
rRNA inh HTS RFP	rRNA inh HTS OD600	rRNA inh HTS	Structure
-0.4	0	0	COc1ccc(S(=O)(=O)N(C)C[C@@H]2OCc3cn(nn3)CCCC(=O)N([C@H](C)CO)C[C@@H]2C)cc1
22	-37	0	O=C(c1cnccn1)N1CC(=O)N2[C@H](C1)[C@H](c1ccc(C#CCC3CCCC3)cc1)[C@@H]2CO
-4.1	8	4	COc1ccc2c3c(n(C)c2c1)[C@@H](CO)N(C(=O)CN(C)C)CC31CN(C(=O)C2CCC2)C1
0.8	-5	0	Cc1ccc(S(=O)(=O)Nc2ccc3c(c2)C(=O)N([C@@H](C)CO)C[C@@H](C)[C@H](CN(C)C(=O)CCC(F)(F)F)OCCCC[C@@H](C)O3)cc1
-2.1	-10	-1	O=C(NCCN1CCCCC1)[C@@H]1N[C@@H]2c3ccc(-c4cccnc4)c(=O)n3C[C@@H]2[C@H]1CO
-1.1	-5	-1	C[C@@H](NC(=O)C[C@@H]1C[C@H]2c3cc(NC(=O)CC4CC4)ccc3O[C@H]2[C@H](CO)O1)c1ccccc1
1.6	-2	-3	COc1cccc(C#Cc2ccc([C@H]3[C@H]4CN(C(=O)c5ccncc5)CC(=O)N4[C@H]3CO)cc2)c1
-16&-9.8	-76&-83	-63&-57	Cc1ccccc1-c1ccc(C2[C@@H]3CN(C(=O)Nc4cccc(F)c4)C[C@H]2N3)cc1 (stereo partly drawn)
2.3	18	4	COCC#Cc1ccc([C@H]2[C@@H](CO)N3CCCCN(C(=O)CN(C)C)C[C@H]23)cc1
-0.3	5	5	CCCNC(=O)[C@@H]1[C@@H](CO)[C@@H]2Cn3c(ccc(-c4cccnc4)c3=O)[C@@H]2N1Cc1cocn1
-3.2	-16	-9	CCc1sc(N2[C@@H](C#N)[C@@H](c3ccccc3-c3cccc(F)c3)[C@@H]2CO)nc1C
-0.1	3	-1	C[C@H](CO)N1C[C@H](C)[C@@H](CN(C)Cc2cccc(C(F)(F)F)c2)OCc2ccccc2-c2c(n(C)c3ccccc23)C1=O
1.8	1	-2	O=C(Nc1ccc2c(c1)[C@H]1C[C@H](CC(=O)N3CCCCC3)O[C@H](CO)[C@H]1O2)c1cccnc1
1.0	1	-1	COc1cccc(NC(=O)N2CC3(C2)[C@@H](c2ccccc2)[C@@H](CO)N3C(=O)C2CCCC2)c1
4.8	-4	-2	COc1ccc(C#Cc2cccc(-c3nc(C(=O)N4CCN(C)CC4)cc4c3[C@@H](CCO)N(S(=O)C(C)(C)C)C4)c2)cc1OC (stereo partly drawn)
1.0	3	0	CO[C@@H]1CN(C)C(=O)c2ccc(NC(C)=O)cc2OC[C@H](C)N(C(=O)c2ccccc2)C[C@@H]1C
14	-39	-2	COCC(=O)N1CC(=O)N2[C@H](CO)[C@@H](c3ccc(C#CC4CCCCC4)cc3)[C@@H]2C1
-1.1	-4	-4	CO[C@H]1CN(C)C(=O)c2cc(NS(=O)(=O)c3ccc(Cl)cc3)ccc2OC[C@H](C)N(C(=O)NC(C)C)C[C@@H]1C
1.4	5	1	CNC[C@@H]1Oc2ncc(/C=C/c3ccccc3)cc2C(=O)N([C@H](C)CO)C[C@H]1C
-2.3	8	1	C[C@@H]1CN([C@H](C)CO)C(=O)c2cccc(NS(=O)(=O)c3ccc(Cl)cc3)c2O[C@@H]1CN(C)CC1CC1
7.2	-65	-35	CCCC#Cc1ccc([C@@H]2[C@@H](CO)N3C(=O)CN(C(=O)c4ccccc4)C[C@@H]23)cc1
0.1	11	5	C[C@@H]1CN([C@H](C)CO)C(=O)c2cc(NS(=O)(=O)c3ccc(Cl)cc3)ccc2O[C@@H](C)CCCCO[C@@H]1CN(C)S(=O)(=O)c1ccc(F)cc1
1.1	4	5	C[C@@H]1CN([C@H](C)CO)C(=O)c2cc(-c3ccncc3)cnc2O[C@H]1CN(C)C(=O)C1CC1
1.5	19	9	O=C(Cc1ccccn1)N1CC2(C1)[C@@H](c1ccccc1)[C@@H](CO)N2C(=O)c1ccncc1
-1.7	2	2	CO[C@H]1CN(C)C(=O)c2cc(NS(C)(=O)=O)ccc2OC[C@@H](C)N(Cc2ccccn2)C[C@@H]1C
-2.9	6	4	COc1ccc(C[C@H]2CCn3nncc3COC[C@@H](CC(C)C)NC2=O)cc1
3.3	-26	-9	O=C(NCc1ccccc1)[C@@H]1[C@@H](CO)[C@@H]2Cn3c(ccc(/C=C/c4ccccc4)c3=O)[C@H]1N2CC1CC1
-0.4	3	5	CO[C@@H]1CN(C)C(=O)c2cc(NC(=O)CN(C)C)ccc2OC[C@@H](C)N(C(=O)C2CC2)C[C@H]1C
0.2&-2.0	4&-2	1&0	CC(=O)N1C[C@@H]2C(c3ccccc3)[C@H](C1)N2S(C)(=O)=O (stereo partly drawn)
4.8	9	-5	COc1ccc2c3c(n(C)c2c1)[C@H](CO)N(C)CC31CN(C(=O)Nc2cccc(F)c2)C1
-1.0	18	4	COc1cccc(C#Cc2ccc3c(c2)[C@H]2[C@H](CCN2C(=O)Cc2ccccc2)[C@@H](CO)N3C)c1
-1.1	1	0	O=C1N[C@H](c2ccccc2)COCc2cn(nn2)CC[C@H]1Cc1ccc(C(F)(F)F)cc1

(list continues)
rRNA inh HTS RFP	rRNA inh HTS OD600	rRNA inh HTS	Structure
2.1	-14	-7	CN(C)C(=O)c1ccc(-c2ccc3c(c2)[C@@H]2[C@@H](CCN2C(=O)C2CCCCC2)[C@H](CO)N3C)cc1
16	-35	-9	C[C@H]1CN([C@@H](C)CO)C(=O)c2c(c3ccccc3n2C)-c2ccccc2CO[C@H]1CN(C)Cc1ccccc1
0.6	-1	-1	CO[C@H]1CN(C)C(=O)c2cc(NC(=O)c3ccc4c(c3)OCO4)ccc2OC[C@H](C)NC[C@H]1C
-1.3	-4	1	C[C@@H]1CN([C@@H](C)CO)S(=O)(=O)c2ccc(C#C[C@@H](C)O)cc2O[C@@H]1CN(C)CC1CC1
-15	-79	-61	Cc1cccc(-c2ccc(C3[C@@H]4CN(Cc5ccccc5)C[C@H]3N4)cc2)c1 (stereo partly drawn)
6.5	-11	-3	C[C@@H]1CN([C@H](C)CO)C(=O)Cc2cc(NS(C)(=O)=O)ccc2O[C@@H]1CN(C)Cc1ccc(C(F)(F)F)cc1
-2.4	5	0	C[C@H]1CN(C)C(=O)Cc2cc(NS(C)(=O)=O)ccc2O[C@H]1CN(C)C
-1.0	0	-1	CCCNC(=O)N1CC2(C1)[C@@H](c1ccccc1)[C@H](CO)N2CC1CC1
-1.4	-7	-2	O=C(Nc1ccccc1)N[C@@H]1CC[C@@H](CCn2cc(-c3ccccc3F)nn2)O[C@@H]1CO
-3.6	6	4	C[C@H](CO)N1C[C@H](C)[C@H](CN(C)Cc2ccc(F)cc2)Oc2ncccc2C1=O
-2.7	-5	-1	C[C@@H]1CN([C@H](C)CO)C(=O)c2cc(NS(=O)(=O)c3ccc(Cl)cc3)ccc2O[C@@H](C)CCCCO[C@@H]1CN(C)S(=O)(=O)c1ccc(Cl)cc1
-2.9	-32	0	Cc1ccc(CN2CC(=O)N3[C@H](CO)[C@H](c4ccc(-c5ccccc5F)cc4)[C@@H]3C2)cc1
-2.1	12	7	CCCN(C)C[C@H]1OCCCC[C@H](C)Oc2ccc(NC(=O)CCCN(C)C)cc2C(=O)N([C@H](C)CO)C[C@@H]1C
-2.5	9	9	COCC(=O)Nc1ccc2c(c1)C(=O)N(C)[C@H]1CC[C@H](CC(=O)NCCc3ccncc3)O[C@@H]1CO2
-3.5	16	4	C/C=C/c1cnc2c(c1)C(=O)N([C@@H](C)CO)C[C@@H](C)[C@H](CN(C)CC1CCOCC1)O2
-1.7	-7	-6	C[C@@H]1CN([C@H](C)CO)C(=O)c2cc(NC(=O)NC3CCCCC3)ccc2O[C@H]1CN(C)Cc1ccncc1
-1.9	11	4	CCCNC(=O)N1CC2(CN(C(=O)CN(C)C)C2)c2c(n(C)c3cc(OC)ccc23)[C@H]1CO
0.3	7	-2	C[C@@H]1CN([C@H](C)CO)C(=O)c2cccc(NC(=O)C3CCOCC3)c2O[C@H]1CN(C)C(=O)Nc1ccc2c(c1)OCO2
-1.9	5	6	O=C(NC1CCCCC1)N1CC2(C1)[C@@H](c1ccccc1)[C@@H](CO)N2CC1CC1
-0.5	-3	-2	CCCC#Cc1ccc2c(c1)O[C@H](CN(C)C(=O)CN(C)C)[C@H](C)CN([C@@H](C)CO)S2(=O)=O
3.2	-4	-1	O=C(C[C@@H]1C[C@@H]2c3cc(NS(=O)(=O)c4ccc(F)cc4)ccc3O[C@@H]2[C@H](CO)O1)NCc1ccc(-c2ccccc2)cc1
16	-16	2	COc1ccc(C#Cc2ccc([C@@H]3[C@H]4CN(C(=O)c5ccncc5)CC(=O)N4[C@H]3CO)cc2)cc1
-1.3	4	1	CO[C@@H]1CN(C)C(=O)c2ccc(NC(=O)c3cnccn3)cc2OC[C@H](C)N(C)C[C@H]1C
-0.2	8	2	C[C@@H]1CN([C@H](C)CO)C(=O)c2cc(N(C)C)ccc2O[C@@H](C)CCCCO[C@H]1CN(C)C(=O)Nc1ccccc1
27	-28	2	O=C(c1ccc2c(c1)OCO2)N1CC(=O)N2[C@H](C1)[C@@H](c1ccc(C#Cc3ccccc3)cc1)[C@@H]2CO
2.3	-4	0	C[C@H]1CCCCO[C@@H](CN(C)S(=O)(=O)c2ccccc2)[C@@H](C)CN([C@@H](C)CO)C(=O)c2cc(NC(=O)C3CCCCC3)ccc2O1

This is a subset; rates above refer to the full screens.
